# AF4-AF9 inh – MLL-AF4/AF9 protein interaction inhibition; AID 651704; P42568; inhibition, % at 10 µM; AlphaScreen, biotin-AF4 peptide binding to FLAG-AF9; 0.47% of 350,000 active;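 active means every replicate reaching a set inhibition limit, whatever the replicate mean, cut at about 25% in these data; inconclusive means mean inhibition reaches that limit but some replicates miss it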;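 further: 0% = plate neutral control median and 100% = total signal loss; the record names both 10 and 1 µM as test concentration; the first replicate is given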
# Target sequence (P42568 whole entry, looked up): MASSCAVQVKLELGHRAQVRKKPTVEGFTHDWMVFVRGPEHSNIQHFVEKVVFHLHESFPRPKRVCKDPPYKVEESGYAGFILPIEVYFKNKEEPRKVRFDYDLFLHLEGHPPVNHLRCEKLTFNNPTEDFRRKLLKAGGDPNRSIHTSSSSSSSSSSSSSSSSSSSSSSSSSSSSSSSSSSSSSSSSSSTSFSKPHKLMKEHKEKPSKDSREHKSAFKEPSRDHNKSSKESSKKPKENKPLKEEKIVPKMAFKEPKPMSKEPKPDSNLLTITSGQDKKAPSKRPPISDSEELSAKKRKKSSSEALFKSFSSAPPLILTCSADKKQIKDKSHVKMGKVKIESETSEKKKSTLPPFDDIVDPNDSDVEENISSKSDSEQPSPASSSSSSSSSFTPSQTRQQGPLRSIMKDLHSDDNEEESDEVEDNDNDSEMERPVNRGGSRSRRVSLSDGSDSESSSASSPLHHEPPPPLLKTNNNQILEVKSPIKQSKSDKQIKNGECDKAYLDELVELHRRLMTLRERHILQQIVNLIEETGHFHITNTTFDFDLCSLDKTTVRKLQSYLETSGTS
# Ecoli rRNA inh – selective bacterial rRNA inhibition in E. coli; E. coli WT GFP vs humanized-ribosome RFP mutants, fluorescence, 24 h; hits give low values; DMSO median 0, no signal -100; GFP signal change (wild-type ribosome), % (no concentration beside the values); 1.6% of 350,000 active;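 active means significant combined selectivity score with lowered wild-type GFP, culture density cut under 30%, mutant RFP and density less affected; inactive means any of these conditions unmet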; further: one replicate is shown; some compounds called inactive have numbers as strong as hits
# FGF22 binding – binders of recombinant human FGF22 by thermal shift | AID 651658 | 1.5% of 340,000 active | calls only at 9.99 µM | Q9HCT0 | SYPRO orange fluorescence; percent of sucrose octasulfate shift, DMSO zero;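 active means melting point raised past a set limit in the mean and every replicate; inconclusive means no clear call; three in four hits are not shown here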
# Target sequence (Q9HCT0 whole entry, looked up): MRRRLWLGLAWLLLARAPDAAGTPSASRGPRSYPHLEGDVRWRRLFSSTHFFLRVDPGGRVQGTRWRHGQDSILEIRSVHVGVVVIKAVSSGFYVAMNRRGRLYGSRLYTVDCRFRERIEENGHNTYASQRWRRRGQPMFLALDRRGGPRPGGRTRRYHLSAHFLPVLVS
# Beta apoptosis – beta cell apoptosis inhibition. INS-1E cytokine-induced death, ATP luminescence, 48 h; percent of positive-control rescue, neutral wells zero. protection from apoptosis, % (concentration not given with the values). 0.8% of 300,000 active;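 active means all replicates at 75% or more, or half of them and the mean; inconclusive means half reach 75% but not the mean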;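 further: 0% = cytokine-treated negative control wells and 100% = positive control rescue; higher means more ATP so stronger rescue from cytokine killing; wells of about 40 µL received 100 nL stock; the first replicate is given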
# T cruzi repl – T. cruzi replication inhibition | inhibition, % (concentration not given with the values) | 1.4% of 300,000 active | T. cruzi beta-gal in NIH3T3, luminescence, 90 h | AID 1885;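 active means mean inhibition across valid replicates above about 55%, limit read from the data; inconclusive means mean below that limit but half or more replicates reach it; inactive means mean below it, under half of replicates reach it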;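 further: signal also drops with host cell toxicity which is not excluded here; 0% = plate median of DMSO wells and 100% = zero luminescence signal; higher percent means less beta-gal luminescence so fewer parasites; stock transfer was 50 nL into about 50 µL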
# ALR inh – inhibitors of human sulfhydryl oxidase ALR. P55789. purified ALR, DTT oxidation, H2O2 HRP-luminol luminescence. inhibition, % (no concentration beside the values). 3.8% of 290,000 active. AID 485317;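 active means mean and each replicate at 75% or more; inconclusive means only one of the two met; inactive means neither met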;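 further: stock transfer was 7.5 nL into about 7.5 µL; 0% = neutral wells and 100% = wells with inactivated enzyme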
# Target sequence (P55789 whole entry, looked up): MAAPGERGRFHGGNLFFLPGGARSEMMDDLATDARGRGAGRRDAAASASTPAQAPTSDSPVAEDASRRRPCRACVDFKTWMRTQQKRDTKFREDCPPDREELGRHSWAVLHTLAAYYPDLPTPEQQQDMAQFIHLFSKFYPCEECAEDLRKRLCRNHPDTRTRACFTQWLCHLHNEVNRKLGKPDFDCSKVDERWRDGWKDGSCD
# Calb FLC – affects C. albicans growth with fluconazole; AID 1979; 0.57% of 300,000 active; C. albicans CaCi-2 (fluconazole-resistant clinical isolate) + fluconazole, Alamar Blue growth, 48 h; growth inhibition, % (concentration not given with the values);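 active means most replicates above 75%; inconclusive means exactly half above 75%; inactive means most below 75%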;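 further: all wells also contain fluconazole at 8 µg/ml as a sub-toxic cotreatment; 0% = median of DMSO wells and 100% = median of geldanamycin control wells; wells of about 8 µL received 7.5 nL stock; the first replicate is given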
# RanGTP-Impb inh – inhibitors of RanGTP-importin-beta interaction, primary screen, biochemical, FRET, CFP-Ran, YFP-importin-beta, homogeneous | cell-free CFP-Ran/YFP-importin-beta FRET ratio | inhibition, % (concentration not given with the values) | 1.1% of 300,000 active | AID 2216;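 active means most replicates above 15%; inconclusive means exactly half above 15%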;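 further: 0% = DMSO wells and 100% = Ran loaded with GDP instead of GTP; wells of about 40 µL received 100 nL stock; the first replicate is given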
# Ecoli rRNA inh OD600 – second read-out of Ecoli rRNA inh, no call of its own (marks repeat the call); OD600 change, %; measured here: OD600 growth;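 optical density of the mix in the first replicate; 0 = DMSO median and -100 = no signal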
# Ecoli rRNA inh RFP – recorded beside Ecoli rRNA inh, whose call it bears; RFP signal change, %; measured here: RFP humanized mutant strains;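 first replicate; 0 = DMSO median and -100 = no signal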
# Active calls of the source: *; i = inactive; ? = inconclusive; nt = not tested or not shown; + = active, no number.
# Results follow in this order: AF4-AF9 inh, Ecoli rRNA inh, Ecoli rRNA inh OD600, Ecoli rRNA inh RFP, FGF22 binding, Beta apoptosis, T cruzi repl, ALR inh, Calb FLC, RanGTP-Impb inh
- COc1ccc(CCNC(=O)c2ccc3c(c2)OCCO3)cc1
    -2.0, nt, nt, nt, i, -2.6, 8.2, nt, -21.9, 4.1
- COCCCNC(=O)COc1ccc(Br)cc1Cl
    1.6, nt, nt, nt, i, -10.2, -4.0, -5.7, 1.2, 5.4
- CN1CCCN(Cc2ccccc2Br)CC1
    -6.9, 2.4, 0.5, 0.5, i, -1.8, 26.0, 1.6, -15.7, -2.4
- COc1ccccc1N1CCN(c2ccc(S(=O)(=O)N3CCN(C)CC3)cn2)CC1
    0.8, 3.9, 7.0, 0.0, i, -3.2, nt, 3.3, nt, nt
- CCC(=O)N1C(=O)CCN(C(C)=O)c2ccccc21
    nt, nt, nt, nt, nt, -1.6, -11.9, -3.4, -0.1, ?
- CC(C)C(NC(=O)c1ccccc1)C(=O)NCc1ccccn1 (stereo not drawn)
    nt, nt, nt, nt, nt, -5.1, -14.8, -3.2, -11.3, -5.9
- Cc1cccc(OCC(=O)N(C)CC(=O)Nc2cccc(F)c2)c1C
    -1.1, -5.8, -23.8, -1.8, i, -1.3, nt, 3.0, nt, nt
- Cc1ccnc(NC(=O)CCC(=O)N(CC(=O)NC(C)(C)C)c2ccc3c(c2)OCO3)c1
    3.6, 1.0, -3.6, 2.6, i, 5.0, -1.0, -2.9, -4.8, -0.6
- CC(C)N(C(=O)COC(=O)c1cccnc1Cl)c1ccccc1
    -4.5, 3.3, 5.3, 4.8, i, -6.4, nt, nt, nt, nt
- CCN1CCN(CC(=O)N2N=C(c3cccs3)CC2c2ccc(OC)c(OC)c2)C(=O)C1=O (stereo not drawn)
    0.8, 0.0, -0.1, 2.3, i, -4.4, -0.7, -28.4, -5.3, 1.0
- O=C(Cc1ccccc1)NC1CCN(C(=O)c2ccc([N+](=O)[O-])cc2)CC1
    -1.2, 7.1, 18.4, -4.3, i, 5.6, 4.2, -5.4, 0.3, -4.3
- COc1ccccc1CNC(=O)C1COc2ccccc2O1 (stereo not drawn)
    nt, nt, nt, nt, nt, -3.8, -11.8, -4.9, 16.3, 0.0
- CCOC(=O)N1C/C(=C\c2ccccc2)C(=O)/C(=C/c2ccccc2)C1
    3.7, -10.5, -5.1, 3.3, i, nt, 52.7, nt, 1.7, 4.1
- CC(=O)Nc1ccc(C(=O)CS(=O)(=O)c2ccc(C)cc2)cc1
    nt, nt, nt, nt, nt, 5.0, -14.9, 5.7, -0.4, -4.4
- CC(C)C[C@H](NC(=O)c1[nH]cnc1C(=O)Nc1ccc(Cl)cc1)C(=O)OC(C)(C)C
    0.1, 16.3, 3.9, -6.8, i, 55.4, 40.5, 0.5, 1.7, 0.7
- COc1ccc(OC)c(NC(=O)CCN2CC(C)OC(C)C2)c1 (stereo not drawn)
    nt, nt, nt, nt, nt, -1.0, -4.9, nt, 6.6, 0.9
- COc1cc(C(=O)Nc2ccc(Cl)c([N+](=O)[O-])c2)cc(OC)c1OC
    0.1, 17.2, 13.4, -0.7, i, 7.6, 6.5, -15.4, -2.5, -3.5
- O=C(O)c1csc(N/N=C/c2ccc(Br)cc2)n1
    0.4, -28.4*, -15.4*, -1.9*, nt, nt, -21.9, nt, 35.4, -1.1
- CSc1ccccc1NC(=O)CN(C)CC(=O)Nc1c(F)cccc1F
    nt, nt, nt, nt, nt, -5.9, -9.6, -8.7, ?, 1.5
- Cc1ccc(SCC(=O)NNC(=O)CCS(=O)(=O)c2ccccc2)cc1
    -1.8, 2.9, 4.9, -0.7, i, 4.0, nt, -4.5, nt, nt
- COc1cc(COc2ccc3c(C)c(Cc4ccccc4)c(=O)oc3c2)cc(OC)c1OC
    -0.3, -2.0, 8.8, 0.2, nt, -1.1, 38.2, -2.9, -6.1, 3.2
- CC(O)[C@H]1CC[C@H]2[C@@H]3CC[C@H]4C[C@H](O)CC[C@]4(C)[C@H]3[C@H](O)C[C@]12C (stereo partly drawn)
    0.1, 2.1, 4.6, 11.6, i, 0.7, nt, -11.2, nt, nt
- NS(=O)(=O)c1cccn1-c1ncc(C(F)(F)F)cc1Cl
    nt, nt, nt, nt, nt, -6.2, 2.0, -4.1, -3.3, 1.8
- COc1cc(OC)cc(C(=O)Nc2ncn[nH]2)c1
    -3.0, 4.3, -0.4, 6.3, i, -1.5, nt, -0.9, nt, nt
- COc1ccc(NC(=O)NN2CCOCC2)cc1OC
    -1.4, 4.6, -4.9, -4.4, i, 3.9, -0.7, -36.0, 8.7, -1.1
- O=C1CC(C(=O)Nc2nccs2)C(c2ccccc2)O1 (stereo not drawn)
    nt, nt, nt, nt, nt, -6.3, -1.1, -1.9, -4.9, 3.1
- COCCN(C(C)=O)c1nnc(-c2ccccn2)s1
    nt, nt, nt, nt, nt, -5.6, 0.2, -10.2, -0.6, 1.5
- CCCN1CCN(C(=O)c2ccc(-c3ccc([N+](=O)[O-])cc3)o2)CC1
    2.1, -4.6, 1.9, -0.4, i, 3.1, nt, ?, nt, nt
- CCN1CCN(CC(=O)Nc2ccc(Cl)c(S(=O)(=O)N(C)C)c2)CC1
    -9.7, 6.0, 10.8, -3.4, i, -7.0, 1.8, -10.3, -9.6, -2.2
- CNC(=S)N(Cc1cc2cc(OC)c(OC)cc2[nH]c1=O)C1CCCC1
    -0.3, 9.4, -0.3, -3.7, i, -6.7, -4.0, -14.9, 38.6, 2.0
- CCC(C)(C)NC(=O)COc1ccc(OCc2ccccc2)cc1
    -1.0, -23.2, -23.2, 1.4, i, -7.5, 13.7, 4.2, -32.6, 0.7
- [O-][n+]1c2ccccc2c2n1CCN=C2c1ccc(Cl)cc1
    nt, -6.6, -11.4, -3.5, i, -8.3, -7.6, -19.6, 6.7, -2.3
- Cc1[nH]c2ccccc2c(=O)c1SC(F)(F)C(F)C(F)(F)F (stereo not drawn)
    nt, nt, nt, nt, nt, 2.3, -3.7, -19.1, -15.7, 2.6
- CCN1C(=O)C(CC(=O)Nc2ccc(F)cc2)N(Cc2ccc3c(c2)OCO3)C1=S (stereo not drawn)
    2.0, nt, nt, nt, +, 0.7, 16.0, -7.2, -5.9, 1.8
- Cc1cc(C(=O)N2CCN(c3ccc(C(F)(F)F)cn3)CC2)c(C)o1
    0.2, -6.8, -7.0, 0.6, i, -9.8, nt, 5.3, 6.2, 3.0
- COc1ccc(Nc2nc(N)nc(CN3CCOCC3)n2)cc1
    nt, nt, nt, nt, nt, -2.3, 10.9, -7.5, 5.8, -3.9
- O=C(CCN1C(=O)C2C3CC(C(Br)C3Br)C2C1=O)OCC(=O)c1ccccc1 (stereo not drawn)
    -3.3, -6.0, -2.4, -2.0, i, -12.4, -9.4, 0.2, -0.3, 1.1
- COc1cc(NC(=O)c2cc3ccccc3cc2OC)ccc1NC(=O)c1cccs1
    -0.4, -6.7, 3.3, 7.4, i, 18.6, 33.5, -3.9, -10.6, 3.2
- Cc1cc(OCC(=O)NC(C)c2ccccc2)ccc1[N+](=O)[O-] (stereo not drawn)
    -2.4, 2.6, -0.9, -0.1, i, 2.4, 11.9, -1.9, -4.7, -1.2
- CCn1c(SCc2nc3sc(C(=O)O)c(C)c3c(=O)[nH]2)nc2ccccc21
    nt, nt, nt, nt, nt, 1.9, -17.0, 97.5*, -0.2, -18.2
- COc1cccc2c1OC1(C)CC2NC(=O)N1c1cccc(C(=O)N2CCN(c3ccccc3)CC2)c1 (stereo not drawn)
    1.3, 1.6, -2.6, 0.4, i, 7.5, 3.7, 26.0, ?, ?
- N#CC1=C(S)N(c2ccccc2)C(c2ccc(-c3cc(Cl)ccc3Cl)o2)NC1=O (stereo not drawn)
    -0.6, 0.7, 3.8, 2.8, i, 2.3, -4.7, 11.5, 1.0, ?
- Cc1nnc(SCCC(=O)Nc2nc(-c3ccccc3)ns2)s1
    nt, nt, nt, nt, nt, 0.2, -21.8, 12.6, 43.8, nt
- O=C(CN1CCN(S(=O)(=O)c2ccc(Cl)s2)CC1)N1CCOCC1
    -0.5, 8.3, 7.9, 2.3, i, -9.4, -20.5, -3.3, -9.3, 3.0
- Cc1cc(O)c(C(C)C)cc1NC(=O)Nc1cccc2ccccc12
    -8.9, -0.3, 7.2, 6.1, i, -6.4, 9.2, -20.3, -3.7, -2.8
- COc1ccc2c(c1)c(=O)oc1cc(OCC(=O)NC3CC3)ccc12
    nt, nt, nt, nt, nt, 0.9, -3.9, -0.4, -5.7, -0.1
- Cc1ccc(OCCN2CCN(C(=O)CCC(=O)Nc3nnc(C(C)C)s3)CC2)cc1
    nt, nt, nt, nt, nt, -0.8, 13.9, 1.6, 4.8, -3.2
- CN(c1ccc(OCC(=O)OCC(=O)Nc2c(F)c(F)c(F)c(F)c2F)cc1)S(=O)(=O)c1ccc(F)cc1
    nt, nt, nt, nt, nt, -9.9, -7.3, -22.5, -20.0, -0.8
- CCOc1ccccc1C1CC(c2cccc(NS(C)(=O)=O)c2)=NN1C(=O)c1ccccc1 (stereo not drawn)
    nt, nt, nt, nt, nt, 2.9, 24.1, 0.2, -1.6, 8.6
- COc1ccc(NC(=O)CN2C(=O)NC(C)(C3CC3)C2=O)cc1S(=O)(=O)N1CCCCC1 (stereo not drawn)
    -3.1, 10.5, 2.0, 2.5, i, -1.3, nt, nt, nt, nt
- COC(=O)c1c(C)[nH]c(C(=O)C(C)OC(=O)C2=NNC(=O)CC2)c1C (stereo not drawn)
    -3.3, -6.9, -3.6, 1.6, i, 6.6, 3.9, 11.6, 6.1, -0.6
- COc1ccccc1N1CCN(C(=O)c2ccc3nc[nH]c3c2)CC1
    -7.6, -2.5, -8.7, -6.2, i, -3.5, 6.7, 15.7, 10.6, -0.5
- COc1ccc(CC(=O)c2ccc(O)cc2O)cc1
    -0.4, -23.6, -12.8, -13.4, i, nt, 0.2, 64.2, 7.2, 6.6
- C=CCS/C(N)=N\N=C\c1cc(Br)cc([N+](=O)[O-])c1O
    -20.1, -24.9, -21.1, -4.1, i, 1.1, 7.0, -3.7, 12.1, 7.8
- CCN1CCN(c2ccc(S(=O)(=O)N3CCOCC3)cc2NC(=O)c2ccc(C)cc2C)CC1
    0.7, nt, nt, nt, i, 0.3, nt, -1.2, nt, nt
- COc1ccccc1NS(=O)(=O)c1cc(NC(=O)Nc2cccc(C)c2)ccc1N1CCCCC1
    nt, nt, nt, nt, nt, 44.4, 59.9*, -1.6, 12.8, 5.4
- O=C(NC1CCCCC1)C(c1ccc(O)c(O)c1)N(C(=O)Cn1nnc2ccccc21)c1cccc(O)c1 (stereo not drawn)
    -1.1, -25.4, -27.4, 8.7, nt, -3.6, -4.7, 27.9, -4.4, -2.5
- Cc1cc(Cl)ccc1Oc1ccccc1C(=O)CC#N
    2.6, 5.8, 1.8, 2.0, i, 1.9, 2.1, 7.2, 21.6, nt
- COc1ccccc1C1=NOC(CN2C(=O)c3ccccc3S2(=O)=O)C1 (stereo not drawn)
    -35.9, -12.3, -9.4, 0.6, i, -6.6, 3.4, -2.4, 2.9, 6.4
- c1ccc2c(C3=NNC(=NC4CC4)SC3)c[nH]c2c1
    nt, nt, nt, nt, nt, -7.6, -14.6, 99.2*, -39.9, 2.5

# A portion of the library, so the mix of outcomes need not match the whole.
